Screens: PubChem BioAssay, National Center for Advancing Translational Sciences (NCATS)
AID923 = qHTS Assay for Allosteric/Competitive Inhibitors of Caspase-1: Spectroscopic Profiling in AFC Spectral Region. Potency, µM (highest dose often 57.5 µM), without a hit: at the top dose fluorescence increase, actives largely listed as activators. actives 1.1% (n = 75,000). AID 923, 2007. compound fluorescence, AFC spectral region (405/520 nm); almost no hit is shown here; active = well fitted activation curve with a large enough effect; inconclusive = small, poorly fitted or top-dose-only effect;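 note: potency is the fitted concentration of half-maximal effect; 0% is about no effect; scaled to a free AFC standard on each plate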
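Titrations up to 57 uM read every 20 sec for 3 min (405/520 nm) with 50 nM caspase 1 and 5 uM Ac-WEHD-AFC, pH 7.5 HEPES buffer. Fluorescence-vs-time intercept gave baseline, scaled against on-plate AFC standard.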
A488 fluor = compound fluoresces in the A488 spectral region; AID 591; compound autofluorescence, A488 spectral region, dye equivalency; hits give high values; max dye equivalency, M; actives 0.1% (n = 59,000); active = above 10 nM dye equivalent; inconclusive = 1 to 10 nM; inactive = 1 nM or less; about half of its hits are not listed in these tables;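 note: highest value over a series up to 38 µM; compound alone in buffer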
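Spectroscopic profiling in the A488 region: compounds in pH 8.0 Tris (100 mM), 15 min RT, CCD imaging with 480 nm excitation and 540 nm emission; responses normalized against A488 dye standards.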
TSHR agonist = activates the human thyroid stimulating hormone receptor; P16473; HEK293-CNG-TSHR cells (CNG channel as cAMP sensor), membrane potential dye, cAMP; Potency, µM (top dose mostly 57.1 µM), for the others: at the top dose activation, most hits filed as activators; actives 0.48% (n = 73,000); AID 926; active = well fitted activation curve of enough size with the parental cells flat; inconclusive = any curve in the parental cells; inactive = parental cells flat and receptor cells flat or falling; note: potency is the fitted concentration of half-maximal effect; % of control where 0% means no effect; weak receptor curves with flat parental cells got no call and are not listed
Target sequence (P16473 whole entry, looked up): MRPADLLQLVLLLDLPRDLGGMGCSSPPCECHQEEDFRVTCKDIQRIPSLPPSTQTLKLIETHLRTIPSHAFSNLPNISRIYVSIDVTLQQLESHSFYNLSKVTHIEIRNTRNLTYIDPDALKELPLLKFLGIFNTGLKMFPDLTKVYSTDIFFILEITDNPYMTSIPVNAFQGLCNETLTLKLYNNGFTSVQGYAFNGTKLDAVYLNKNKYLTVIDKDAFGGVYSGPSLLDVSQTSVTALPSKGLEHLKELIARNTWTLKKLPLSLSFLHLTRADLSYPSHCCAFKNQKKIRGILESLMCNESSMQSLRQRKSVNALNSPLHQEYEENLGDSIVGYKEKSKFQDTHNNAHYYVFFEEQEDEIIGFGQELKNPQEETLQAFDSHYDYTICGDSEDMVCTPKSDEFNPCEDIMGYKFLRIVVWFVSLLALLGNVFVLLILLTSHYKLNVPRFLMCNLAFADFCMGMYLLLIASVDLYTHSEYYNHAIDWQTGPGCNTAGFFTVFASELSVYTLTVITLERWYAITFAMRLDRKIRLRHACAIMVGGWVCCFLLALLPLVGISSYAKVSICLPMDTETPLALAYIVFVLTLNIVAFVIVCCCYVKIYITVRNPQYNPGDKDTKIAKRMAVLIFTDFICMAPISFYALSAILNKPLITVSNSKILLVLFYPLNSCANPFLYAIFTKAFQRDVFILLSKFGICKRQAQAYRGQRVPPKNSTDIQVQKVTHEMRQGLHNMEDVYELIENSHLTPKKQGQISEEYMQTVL
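HEK 293 cells stably expressing TSHR and a modified CNG channel, with CNG-only parental cells as counterscreen, were preloaded 60 min at room temperature with membrane potential dye containing 100 uM RO 20-1724. Compound exposure was 30 min, and depolarization was read as fluorescence at 590 nm.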
A647 autofl = compound fluoresces in the A647 spectral region; Compound fluorescence, A647 channel (570/671 nm), Tris buffer; max dye-equivalent concentration, M; 59,000 tested, under 10 active; active means above 1 µM dye equivalent; inconclusive means 0.1 to 1 µM; inactive means 0.1 µM or less;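 note: values scaled relative to a standard on each plate; highest value over a series up to 38 µM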
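Buffer was dispensed, compounds and Alexa 647 standards were pin-transferred, and plates sat 15 min at room temperature. Intensity at 570/671 nm was then converted to dye-equivalent concentration using the plate's A647 standard curve.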
Resorufin fluor = compounds fluorescent in resorufin spectral region | Compound fluorescence, resorufin region 547/598 nm, buffer; hits give high values | max dye-equivalent concentration, M | actives 0.04% (n = 59,000); active = above 10 nM dye equivalent; inconclusive = 1 to 10 nM; inactive = 1 nM or less; a few of its hits are not listed in these tables; note: highest value over a series up to 38 µM
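Compounds in 100 mM Tris, pH 8.0, incubated 15 min at room temperature, then fluorescence read at 547 nm excitation/598 nm emission. Signal converted to dye-equivalent concentration via an on-plate six-point resorufin standard curve, per compound concentration.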
An asterisk follows results filed as active; i = inactive; ? = inconclusive; nt = no result given; [ ] = another dose, or the depositor's remark. The list is partial; rates above refer to the full screens.

smiles	AID923	A488 fluor	TSHR agonist	A647 autofl	Resorufin fluor
CCn1cc(C(=O)NCc2cccs2)c(=O)c2ccc(C)nc21	-1.1%	i	-1.9%	5e-09	i
COc1cc(-c2nn3c(-c4cccc(C)c4)nnc3s2)cc(OC)c1OC	-1.6%	i	nt	1e-09	i
CCOc1ncccc1C(=O)OCc1cn2cc(Cl)ccc2n1	-0.8%	i	8.3%	8e-09	i
Cc1cccc2cc(CN(Cc3ccccc3)C(=O)N(C)C)c(=O)[nH]c12	-0.4%	i	12.1%	2.2e-08	i
O=C(Oc1ccccc1)c1cccc(COC(=O)c2cnccn2)c1	0.1%	i	10.9%	1e-09	i
CCOc1cc(-c2c(C#N)c(N)nc3c2CCCC3C)ccc1O (centres undefined)	0.5%	i	?	1.94e-08	i
CCOC(=O)N1CCN(C(=O)Nc2ccc(Cl)cc2)CC1	0.5%	i	-12.3%	1.39e-08	i
O=C1c2oc3ccccc3c(=O)c2C(c2cccc(O)c2)N1c1ccccn1 (centres undefined)	0.2%	nt	-8.6%	nt	nt
COCCCn1c(SCC(N)=O)nnc1-c1ccccc1	0.1%	i	-3.3%	1e-09	i
CC(CC(=O)NC1CCSC1=O)c1ccccc1 (centres undefined)	-1.2%	nt	-0.7%[11.4 µM]	nt	nt
Nc1sc2c(c1C(=O)NC1CCS(=O)(=O)C1)CCC2 (centres undefined)	11.1%	i	0.7%	2.36e-08	i
COc1cccc(N(C(=O)c2ccco2)C(C(=O)NC2CCCC2)c2ccc(N(C)C)cc2)c1 (centres undefined)	0.6%	i	23.5%	4.96e-08	i
COc1cccc(NC(=O)CSc2ccc3nnc(-c4ccncc4)n3n2)c1	1.6%	nt	-0.2%	nt	nt
COc1cccc(-c2nnc(NC(=O)c3ccc(S(=O)(=O)N(CC(C)C)CC(C)C)cc3)o2)c1	0.2%	i	-4.0%	7.7e-09	i
Cc1cc(C)nc(SCC(=O)Nc2ccc(S(=O)(=O)Nc3nccs3)cc2)n1	-1.3%	nt	-7.9%[11.4 µM]	nt	nt
O=c1c2c3n(c(=O)nc2[nH]n1-c1ccccc1)CCCCC3	-1.1%	i	1.2%	2.49e-08	i
COc1ccccc1C(=O)N1CCCC1(C#N)c1ccccc1 (centres undefined)	nt	i	nt	3.27e-08	i
COc1ccc(N(CC(=O)Nc2ccc(S(=O)(=O)N3CCCC3)cc2)S(C)(=O)=O)cc1OC	0.2%	i	-8.1%	1e-09	i
COc1ccc(NC(=O)CC(Cc2ccccc2)C(=O)O)cc1 (centres undefined)	-0.4%	i	-1.9%	1e-09	i
CC(C)=CCCC(C)CN1CCC(O)CC1 (centres undefined)	2.4%	i	5.0%	1e-09	i
CNC(=O)N(C1=NCC(C)S1)c1ccc(F)cc1F (centres undefined)	-0.1%	i	?	3.04e-08	i
Cc1ccc(C2CC(C(F)F)n3ncc(C(=O)Nc4cnn(Cc5ccccc5C)c4)c3N2)cc1 (centres undefined)	-1.8%	i	-9.4%	1e-09	i
O=C(COC(=O)c1cccc(S(=O)(=O)N2CCOCC2)c1)Nc1ccc2c(c1)OCO2	-2.3%	i	0.1%	9.8e-09	i
O=S(=O)(O)[C@@H](CO)c1ccccc1 (tested in a mixture with another compound)	-2.0%[11.5 µM]	i	0.7%[11.4 µM]	4.98e-08	i
O=C(CN(C(=O)C1COc2ccccc2O1)c1ccccc1)NCC1CCCO1 (centres undefined)	-3.2%	i	10.0%	1e-09	i
COc1cc(C)c(C)cc1S(=O)(=O)N1CCCCC1c1cccnc1 (centres undefined)	2.7%	i	10.6%	9.4e-09	i
O=C(Nc1cccc(O)c1)c1ccccc1	-2.7%	i	-3.8%	1.05e-08	i
O=C(CC1C(=O)NCCN1C(=O)Nc1ccccc1)Nc1cccc(C(F)(F)F)c1 (centres undefined)	0.2%	i	-24.4%	2.2e-09	i
Cc1ccc(NC(=O)CC(O)(C(F)(F)F)C(F)(F)F)c(Br)c1	-1.3%	i	16.6%	6.5e-09	i
COC(=O)[C@@]1(Cc2ccc(OC)cc2)[C@H]2c3cc(C(=O)N(C)C)n(Cc4ccc(C)o4)c3C[C@H]2CN1C(=O)c1ccccc1	-0.1%	nt	?	nt	nt
Cc1ccc(N2C(=O)CC(N(O)C3CC(=O)N(c4ccc(C)cc4)C3=O)C2=O)cc1 (centres undefined)	nt	i	nt	6.6e-09	i
COC(=O)CSC1=C(C#N)C(c2ccc(C)cc2)C2=C(CCCC2=O)N1 (centres undefined)	3.7%	i	-1.9%	2.38e-08	i
COc1ccccc1C1C=C(c2ccccc2)Nc2nnnn21 (centres undefined)	17.7%	nt	?	nt	nt
CCOC(=O)N1CCC(NC(=O)C2CCCN(S(C)(=O)=O)C2)CC1 (centres undefined)	-0.4%	i	?	1e-09	i
O=C1c2ccccc2C(=O)N1CCc1ccccn1	3.7%	i	-11.0%	1e-09	i
CCOC(=O)c1cc(C#N)c(SCC(=O)c2cc(C#N)c(SC)nc2C)[nH]c1=O	16.8%	i	23.4%	3.3e-09	i
Cc1ccnc(NC(=O)CCC(=O)N(CC(=O)NC2CCCCC2)c2ccc3c(c2)OCO3)c1	-0.2%	i	8.9%	1e-09	i
CCN1CCN(c2cc(C)c3cc(NC(=O)c4ccc(Br)o4)ccc3n2)CC1	3.2%	i	0.2%	1.04e-08	i
COc1cccc(-n2nnnc2SCC(=O)Nc2cccc(NC(C)=O)c2)c1	0.3%	i	-1.1%	6.48e-08	i
O=C(NCCOc1ccccc1)c1ncn[nH]1	-0.7%	i	10.9%	5.8e-09	i
COc1ccc2[nH]cc(C3N4CC5(C)CN3CC(C)(C4)C5=O)c2c1 (centres undefined)	-1.6%	i	?	1.9e-09	i
CC[C@@H](c1ccccc1)n1c(=O)n2n(c1=O)[C@H]1[C@H](O)[C@H]3O[C@@H]3/C(=N/OC/C=C(\C)CCC=C(C)C)[C@@H]1CC2	-0.1%[11.5 µM]	nt	6.4%[11.4 µM]	nt	nt
COC(=O)c1c(NC(=O)CN2CCOCC2)sc2c1CCC(C)C2 (centres undefined)	-1.2%	i	7.0%	1.59e-08	i
COc1ccc(CCN2CCCn3c2nc2c3c(=O)n(Cc3ccccc3F)c(=O)n2C)cc1OC	-0.6%	i	-9.0%	3.3e-09	i
O=C(O)CSCc1c(F)cccc1Cl	-1.7%	i	26.8%	1.7e-08	i
O=C(c1ccc2c(c1)c(=O)oc1ccccc12)N1CCCCC1	0.5%	i	28.6%	4.67e-08	i
CCOC(=O)C1CCCN(C(=O)CCc2ccccc2)C1 (centres undefined)	-0.7%	nt	4.0%[11.4 µM]	nt	nt
O=C(CSc1nnc(-c2ccco2)n1-c1ccccc1)NCc1ccc2c(c1)OCO2	0.3%	i	12.8%	2.2e-08	i
O=C1CNCc2[nH]c3ccccc3c2N1c1ccccc1	0.9%	i	1.4%	1.93e-08	i
CCOC(=O)c1ccc(NC(=O)c2ccc3c(c2)OCO3)cc1	0.7%	i	?	1.47e-08	i
CCn1c(N)c(C(=O)NCc2cccnc2)sc1=S	2.2%	i	0.5%	1.23e-08	i
COc1cc(NC(=O)c2cccc3c2C(=O)N(Cc2cccnc2)C3)cc(OC)c1OC	-2.5%	nt	8.7%	nt	nt
COc1ccc(C(O)c2nccn2Cc2ccccc2)cc1 (centres undefined)	1.1%	i	10.9%	1e-09	i
c1ccc(CNc2ncnc3nc[nH]c23)nc1	1.2%	nt	-7.3%	nt	nt
CS(=O)(=O)N1CCN(C(=O)c2cccnc2)CC1	0.4%	i	-3.7%	3.5e-09	i
O=C(COc1ccc2ccccc2c1Br)N1CCN(c2ccccn2)CC1	-3.5%	i	nt	4.6e-09	i
Cc1ncc(CSc2ccccc2N)c(CO)c1O	1.3%[11.5 µM]	i	-0.2%[11.4 µM]	1.06e-08	i
CC(=O)/C(C)=N\O	-3.0%	i	?	3.44e-08	i
COc1ccc(CCNC(=O)CN(c2ccc(OC)c(OC)c2)S(C)(=O)=O)cc1	4.8%	nt	15.5%	nt	nt
C=C(C)CSc1nc(N)cc(=O)[nH]1	0.0%	i	-0.5%	5.3e-09	i

Remaining list, next part
smiles	AID923	A488 fluor	TSHR agonist	A647 autofl	Resorufin fluor
COc1ccc(C(=O)N2CCC3(CCN(C)CC3)CC2)cc1	-0.1%	i	-2.6%	3.5e-09	i
COCCNc1oc(-c2ccc(F)cc2)nc1C#N	nt	i	nt	3.7e-09	i
COc1ccc(CCNC(=O)c2ccccc2NC(=O)c2ccco2)cc1OC	1.3%	nt	5.8%	nt	nt
CCOC(=O)CSc1nc2c(c(=O)n1-c1ccc(OCC)cc1)SCC2	0.6%	i	3.3%	1.68e-08	i
O=C(CN1CCC(n2nnc3ccccc32)CC1)Nc1ccc2c(c1)CCC2	1.7%	i	17.4%	1e-09	i
COc1ccc(OC)c(S(=O)(=O)n2cccn2)c1	-0.5%	i	-0.1%	1e-09	i
Cc1cccc(NC(=O)c2cnc3scc(C)n3c2=O)c1	-1.4%	nt	-0.1%	nt	nt
Cc1ccc(S(=O)(=O)N2CCN(S(=O)(=O)N3CCCCC3)CC2)c(C)c1	-1.5%	i	3.1%	2.3e-08	i
O=C(NCc1ccc2c(c1)OCO2)c1ccc2c(c1)C(=O)N(Cc1cccnc1)C2=O	2.7%	i	?	1e-09	i
O=C1OC(Nc2ccc3c(c2)OCO3)c2ccccc21 (centres undefined)	0.4%	i	-6.4%	1.07e-08	i
Cc1ccc2[nH]c3c(=O)n(CCCN4CCOCC4)cnc3c2c1	0.4%	i	-7.0%	1e-09	i
Cc1sc(NC(=O)COc2cccc(-n3cnnn3)c2)c(C#N)c1C	1.4%	i	12.5%	4.07e-08	i
COc1ccc(NC(=O)CCCN2C(=O)CCC2=O)cc1Cl	0.8%	i	1.4%	1.76e-08	i
O=C(Nc1ccccc1)N1CCCC2(CCNCC2)C1	6.5%	i	-2.5%	4.3e-09	i
O/N=C1/CCc2cccc3cccc1c23	2.8%	nt	11.8%	nt	nt
C/C=C\C1=C(CO)[C@H](O)[C@H]2OC2[C@@H]1O (some centres undefined)	4.5%[11.5 µM]	nt	-1.7%[11.4 µM]	nt	nt
CCN(CC)c1cccc(OC2=NS(=O)(=O)c3ccccc32)c1	0.2%	nt	3.7%	nt	nt
Cc1cccc(-c2nc(CS(=O)CC(=O)N3CCCCC3)c(C)o2)c1 (centres undefined)	-2.0%	nt	2.1%	nt	nt
CCOc1ccc2nc(NC(=O)c3cnccn3)sc2c1	-0.6%	i	-3.9%	2.7e-09	i
CCOC(=O)c1c(NC(=O)CSc2ncn[nH]2)sc(C)c1C	-0.1%	i	15.6%	3.71e-08	i
N#Cc1nc(-c2ccc(OCc3ccc(Cl)cc3)cc2)oc1NCCCn1ccnc1	0.4%	i	-15.8%	1e-09	i
O=C(CSc1nnc(-c2ccco2)o1)NCC(=O)c1ccccc1	-2.5%	i	-0.4%	1.4e-09	i
CCc1ccc(S(=O)(=O)NCc2cn3cccc(C)c3n2)s1	-1.6%	i	nt	1e-09	i
CCOC(=O)CC1(C)NC(=O)c2c(C)sc(C(=O)OCC)c2N1 (centres undefined)	-0.3%	i	-17.7%	3.86e-08	i
Cc1cc(N2CCOCC2)c2c(N)c(Br)cc(C)c2n1	-2.0%	nt	9.4%[11.4 µM]	nt	nt
Cc1ccc2c(c1)N(CC(=O)NCCN1CCOCC1)C(=O)CO2	0.1%	nt	4.2%	nt	nt
